Beta apoptosis = inhibitors of cytokine-induced beta cell apoptosis, primary screen, luminescence; INS-1E cytokine-induced death, ATP luminescence, 48 h; percent of positive-control rescue, neutral wells zero; protection from apoptosis, % (concentration not given with the values); actives 0.8% (n = 300,000);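 active = all replicates at 75% or more, or half of them and the mean; inconclusive = half reach 75% but not the mean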;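 note: 0% = cytokine-treated negative control wells and 100% = positive control rescue; higher means more ATP so stronger rescue from cytokine killing; wells of about 40 µL received 100 nL stock; the first replicate is given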
rRNA inh HTS = reduced GFP signal of wild-type E. coli, primary screen, bacterial rRNA inhibitor project, GFP/RFP fluorescence, OD600, single point; E. coli WT GFP vs humanized-ribosome RFP mutants, 24 h; hits give low values; DMSO median 0, no signal -100; GFP signal change (wild-type ribosome), % (concentration not given with the values); actives 1.6% (n = 350,000); AID 720706, 2013;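 active = significant combined selectivity score with lowered wild-type GFP, culture density cut under 30%, mutant RFP and density less affected; inactive = any of these conditions unmet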; note: one replicate is shown; some compounds called inactive have numbers as strong as hits
T cruzi inh = inhibitors of intracellular T. cruzi growth, primary screen, luminescence, NIH3T3 host cells | T. cruzi beta-gal in NIH3T3, 90 h | AID 1885, 2009 | actives 1.4% (n = 300,000) | inhibition, % (test concentration not listed);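 active = mean inhibition across valid replicates above about 55%, limit read from the data; inconclusive = mean below that limit but half or more replicates reach it; inactive = mean below it, under half of replicates reach it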;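 note: signal also drops with host cell toxicity which is not excluded here; 0% = plate median of DMSO wells and 100% = zero luminescence signal; higher percent means less beta-gal luminescence so fewer parasites; stock transfer was 50 nL into about 50 µL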
Calb FLC = C. albicans growth inhibition with fluconazole, primary screen, CaCi-2 strain, Alamar Blue fluorescence; C. albicans CaCi-2 (fluconazole-resistant clinical isolate) + fluconazole, 48 h; growth inhibition, % (no concentration beside the values); actives 0.57% (n = 300,000); AID 1979, 2009;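 active = most replicates above 75%; inconclusive = exactly half above 75%; inactive = most below 75%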;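 note: all wells also contain fluconazole at 8 µg/ml as a sub-toxic cotreatment; 0% = median of DMSO wells and 100% = median of geldanamycin control wells; wells of about 8 µL received 7.5 nL stock; the first replicate is given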
FGF22 binding = binders of human FGF22 protein, primary screen, FGF22 synaptogenesis inhibitor project, biophysical, thermal shift, single point; Fibroblast growth factor 22 (Homo sapiens), Q9HCT0; recombinant FGF22 thermal shift, SYPRO orange fluorescence; percent of sucrose octasulfate shift, DMSO zero; calls only at 9.99 µM; actives 1.5% (n = 340,000);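 active = melting point raised past a set limit in the mean and every replicate; inconclusive = no clear call; three in four hits are not shown here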
Target sequence (Q9HCT0 whole entry, looked up): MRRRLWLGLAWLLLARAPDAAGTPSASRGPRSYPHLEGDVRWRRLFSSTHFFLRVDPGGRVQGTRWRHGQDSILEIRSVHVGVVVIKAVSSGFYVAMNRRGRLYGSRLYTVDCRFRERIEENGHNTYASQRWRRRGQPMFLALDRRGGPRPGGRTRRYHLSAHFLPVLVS
RanGTP-Impb inh = inhibitors of RanGTP-importin-beta interaction, primary screen, biochemical, FRET, CFP-Ran, YFP-importin-beta, homogeneous. Ran GTPase (GTP-bound) - importin-beta complex. cell-free CFP-Ran/YFP-importin-beta FRET ratio. inhibition, % (test concentration not listed). actives 1.1% (n = 300,000). AID 2216, 2009;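 active = most replicates above 15%; inconclusive = exactly half above 15%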;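 note: 0% = DMSO wells and 100% = Ran loaded with GDP instead of GTP; wells of about 40 µL received 100 nL stock; the first replicate is given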
AF4-AF9 inh = inhibitors of AF4 peptide binding to AF9, primary screen, biochemical, AlphaScreen, biotin-AF4 peptide, FLAG-AF9, single point | Protein AF-9 (Homo sapiens), P42568 | AID 651704, 2012 | inhibition, % at 10 µM | actives 0.47% (n = 350,000);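 active = every replicate reaching a set inhibition limit, whatever the replicate mean, cut at about 25% in these data; inconclusive = mean inhibition reaches that limit but some replicates miss it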;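 note: 0% = plate neutral control median and 100% = total signal loss; the record names both 10 and 1 µM as test concentration; the first replicate is given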
Target sequence (P42568 whole entry, looked up): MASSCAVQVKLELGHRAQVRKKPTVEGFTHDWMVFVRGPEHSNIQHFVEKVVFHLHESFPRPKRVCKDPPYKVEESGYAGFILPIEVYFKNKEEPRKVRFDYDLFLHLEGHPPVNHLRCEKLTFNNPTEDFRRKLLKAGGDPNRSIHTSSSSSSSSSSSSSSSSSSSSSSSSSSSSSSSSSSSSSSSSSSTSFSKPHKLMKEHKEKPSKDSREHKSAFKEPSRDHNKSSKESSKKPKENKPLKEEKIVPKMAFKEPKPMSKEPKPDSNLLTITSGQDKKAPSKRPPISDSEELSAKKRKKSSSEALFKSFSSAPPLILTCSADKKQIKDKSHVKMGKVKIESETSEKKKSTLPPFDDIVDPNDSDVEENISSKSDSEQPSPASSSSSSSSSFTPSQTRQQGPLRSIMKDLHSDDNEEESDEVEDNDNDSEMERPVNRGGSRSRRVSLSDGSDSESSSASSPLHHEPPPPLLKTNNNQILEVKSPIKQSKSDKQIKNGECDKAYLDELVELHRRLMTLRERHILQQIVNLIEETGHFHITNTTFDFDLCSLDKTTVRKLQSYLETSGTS
ALR H2O2 inh = inhibitors of human ALR sulfhydryl oxidase, primary screen, biochemical, H2O2 detection, HRP-luminol luminescence, single point | FAD-linked sulfhydryl oxidase ALR (Homo sapiens), P55789 | actives 3.8% (n = 290,000) | purified ALR, DTT oxidation | inhibition, % (test concentration not listed);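 active = mean and each replicate at 75% or more; inconclusive = only one of the two met; inactive = neither met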;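 note: stock transfer was 7.5 nL into about 7.5 µL; 0% = neutral wells and 100% = wells with inactivated enzyme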
Target sequence (P55789 whole entry, looked up): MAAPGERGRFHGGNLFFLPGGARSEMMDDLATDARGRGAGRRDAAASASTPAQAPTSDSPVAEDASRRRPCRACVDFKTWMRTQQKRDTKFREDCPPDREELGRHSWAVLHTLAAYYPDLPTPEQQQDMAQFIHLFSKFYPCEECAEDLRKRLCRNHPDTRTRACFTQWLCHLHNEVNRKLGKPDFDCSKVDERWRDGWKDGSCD
rRNA inh HTS OD600 = further read-out of rRNA inh HTS, marked with its call; OD600 change, %; measured here: OD600 growth;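 optical density of the mix in the first replicate; 0 = DMSO median and -100 = no signal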
rRNA inh HTS RFP = recorded beside rRNA inh HTS, whose call it bears; RFP signal change, %; measured here: RFP humanized mutant strains;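 first replicate; 0 = DMSO median and -100 = no signal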
* marks the source's active call; other numbers are inactive results; i = inactive; u = inconclusive; x = not tested or not shown. A portion of the library. The share of hits here may be higher or lower than overall.

SMILES	Beta apoptosis	rRNA inh HTS	rRNA inh HTS OD600	rRNA inh HTS RFP	T cruzi inh	Calb FLC	FGF22 binding	RanGTP-Impb inh	AF4-AF9 inh	ALR H2O2 inh
COc1cc(/C=C(\C#N)c2nc3ccccc3o2)ccc1O	11	-6	11	16	5	17	i	-32	-10	u
COCCn1c(SCc2ccc(C(=O)OC)o2)nc2cc(Cl)ccc2c1=O	-4	x	x	x	33	34	x	-1.3	x	-9
COc1cccc(C2/C(=C(\O)c3ccc4c(c3)OCCO4)C(=O)C(=O)N2CC2CCCO2)c1 (stereo not given)	-5	-33	-63	1.4	x	-5	i	x	-2.3	4
COc1cc2c(cc1OC)CN(S(=O)(=O)c1cccc(F)c1)CC2	-3	8	12	-0.7	8	-14	i	1.0	0.3	-3
Cc1ccc(N2C(=O)C3C4C=CC(CNC(=S)Nc5ccc(Cl)cc5)(O4)C3C2=O)cc1 (stereo not given)	-6	-7	-2	-4.5	-7	-7	i	0.7	4.2	-6
Cc1ccc(-c2nn3c(C)nnc3c3ccccc23)cc1S(=O)(=O)N(C)CCO	-7	x	x	x	7	15	x	7.1	x	-13
Cc1ccc(C(=O)NNS(=O)(=O)c2ccccc2[N+](=O)[O-])cc1	-1	x	x	x	-9	13	x	u	x	x
COC(=O)C1=C(NC(=O)COc2ccc3ccccc3c2)CCS1	-4	x	x	x	11	-8	x	-1.8	x	-27
O=C(CSc1ccc(Cl)cc1)N/N=C/c1ccc([N+](=O)[O-])o1	-5	-3	6	-4.7	51	u	i	u	-0.8	x
CCOC(=O)c1c(C)c(C(=O)NCC2CCCO2)c(C)n1C (stereo not given)	-13	x	x	x	-3	-4	x	-1.0	x	0
COC(=O)CNC(=O)c1ccc(OC2CCN(C(=O)C3CC3)CC2)cc1	-2	16	6	2.7	-1	-2	i	2.0	-3.5	-6
CC(C)(C)C(=O)NC(=S)Nc1ccc(S(=O)(=O)Nc2nccs2)cc1	-4	-9	-4	2.0	-1	-3	i	17*	-2.4	10
Nc1ccc(Oc2ccc3c(c2)C(=O)NC3=O)cc1	2	3	-4	-0.7	-3	-3	i	5.3	-1.5	38
Cc1cc(C)cc(OCC(=O)OCC(=O)N(CC(C)C)c2c(N)n(Cc3ccccc3)c(=O)[nH]c2=O)c1	-1	12	11	0.2	-13	-2	i	2.6	6.3	-10
COCc1nnc(NS(=O)(=O)c2ccc(Cl)cc2)s1	x	17	13	1.9	-2	5	i	-3.4	-6.6	x
Cc1noc(C)c1CSc1nnc(-c2ccccc2)n1N	2	x	x	x	5	13	x	2.7	x	7
Cc1cccn2cc(-c3ccc(NC(=O)Cc4ccccc4)cc3)nc12	-2	1	3	-0.4	15	-6	i	1.1	-8.0	-1
COC(=O)COc1cccc(NC(=O)c2ccccc2)c1	-5	x	x	x	-8	11	x	5.2	x	-15
CCCCN=C(Nc1ccc(Cl)cc1)c1cccnc1	-6	x	x	x	-8	-8	x	4.1	x	2
CCCCCCSc1ccc(-c2nc3ccc(Cl)cn3c2NCc2ccccc2)cc1	-14	-3	-2	2.3	x	x	i	x	x	-1
CS(=O)(=O)N(CC(=O)O)c1ccc(C23CC4CC(CC(C4)C2)C3)cc1	0	-1	-2	-2.1	-11	-2	i	1.6	-0.4	10
COc1cc(NC(=O)COc2ccc3c(C)cc(=O)oc3c2C)cc(OC)c1OC	9	4	3	-1.4	8	-15	i	-0.1	-6.0	-1
CN1CCN(NC(=O)c2ccc(S(=O)(=O)N3CCCCCC3)cc2)CC1	-9	24	6	0.6	68*	6	i	7.8	-1.1	32
Cc1cccc(C)c1OCC(=O)N1CCc2ccccc2C1	-5	-11	-10	0.0	14	-3	i	-3.7	-2.2	-11
O=C1C2C3C=CC(C3)C2C(=O)N1CCCO (stereo not given)	3	x	x	x	-9	-1	x	-4.2	x	-5

Part of the list above in order of molar mass, ascending:
SMILES	Beta apoptosis	rRNA inh HTS	rRNA inh HTS OD600	rRNA inh HTS RFP	T cruzi inh	Calb FLC	FGF22 binding	RanGTP-Impb inh	AF4-AF9 inh	ALR H2O2 inh
COc1cc(/C=C(\C#N)c2nc3ccccc3o2)ccc1O	11	-6	11	16	5	17	i	-32	-10	u
Cc1ccc(C(=O)NNS(=O)(=O)c2ccccc2[N+](=O)[O-])cc1	-1	x	x	x	-9	13	x	u	x	x
O=C(CSc1ccc(Cl)cc1)N/N=C/c1ccc([N+](=O)[O-])o1	-5	-3	6	-4.7	51	u	i	u	-0.8	x
COC(=O)C1=C(NC(=O)COc2ccc3ccccc3c2)CCS1	-4	x	x	x	11	-8	x	-1.8	x	-27
COc1cc2c(cc1OC)CN(S(=O)(=O)c1cccc(F)c1)CC2	-3	8	12	-0.7	8	-14	i	1.0	0.3	-3
CS(=O)(=O)N(CC(=O)O)c1ccc(C23CC4CC(CC(C4)C2)C3)cc1	0	-1	-2	-2.1	-11	-2	i	1.6	-0.4	10
CN1CCN(NC(=O)c2ccc(S(=O)(=O)N3CCCCCC3)cc2)CC1	-9	24	6	0.6	68*	6	i	7.8	-1.1	32
COc1cc(NC(=O)COc2ccc3c(C)cc(=O)oc3c2C)cc(OC)c1OC	9	4	3	-1.4	8	-15	i	-0.1	-6.0	-1
COc1cccc(C2/C(=C(\O)c3ccc4c(c3)OCCO4)C(=O)C(=O)N2CC2CCCO2)c1 (stereo not given)	-5	-33	-63	1.4	x	-5	i	x	-2.3	4

Later entries
SMILES	Beta apoptosis	rRNA inh HTS	rRNA inh HTS OD600	rRNA inh HTS RFP	T cruzi inh	Calb FLC	FGF22 binding	RanGTP-Impb inh	AF4-AF9 inh	ALR H2O2 inh
O=Cc1cn(-c2ccc(F)cc2)c2ccccc12	-2	x	x	x	-16	-16	x	-1.6	x	-2
O=C(CSc1cccc[n+]1[O-])NC(=O)c1ccc(OC(F)F)cc1	-4	-3	-2	-5.7	-43	0	i	-0.3	-1.9	x
Cc1ccc(S(=O)(=O)N2CCN(C(=O)CN3CCCCC3)C2)cc1	2	x	x	x	-8	-10	x	0.4	x	x
COC(=O)/C=C1/N/C(=N\c2nc(C)cc(C)n2)N(c2cccc(C)c2)C1=O	-2	x	x	x	-11	14	x	6.8	x	19
Cc1nc2cc(NC(=O)NCCCO)ccc2o1	1	12	10	-0.3	-9	29	i	-0.4	-0.5	-27
COc1ccc(/C=N/NC(=O)C2(O)c3ccccc3-c3ccccc32)cc1	-3	x	x	x	-14	-11	x	0.9	x	-10
COc1ccc(N2CC(C)(C)C2=O)cc1	-5	10	6	1.7	-5	4	i	2.1	-1.3	-33
Cc1sc2ncnc(N3CCC(C(=O)NNC(=O)c4ccccc4Cl)CC3)c2c1C	2	-26	-31	-5.7	-2	2	i	1.1	-1.0	-1
CC(c1nc2ccccc2c(=O)[nH]1)N(C)CCOc1ccc(Cl)cc1 (stereo not given)	-1	-12	-13	-0.8	9	8	i	-0.8	9.1	-4
COc1ccc(OC)c(C(C)NC(=O)c2ccc(Br)cc2)c1 (stereo not given)	0	21	29	8.2	13	-2	i	-1.4	1.4	x
Cc1ccc(-c2nnn(CC(=O)N(C)C3CCCCC3)n2)o1	-9	14	9	-2.4	-5	9	i	2.1	-2.3	1
O=C(NC1CCCCC1)C(c1cccnc1)N(CCc1ccccc1)C(=O)Cc1cccs1 (stereo not given)	1	11	10	-2.2	50	0	i	-3.9	-1.8	-9
O=C(CSCc1cccc(Cl)c1)N1CCN(Cc2ccc3c(c2)OCO3)CC1	-2	x	x	x	-2	-1	x	0.3	x	-1
COc1cc(-c2[nH]nc3c2C(c2ccco2)C(C#N)=C(N)O3)cc(OC)c1OC (stereo not given)	-2	7	4	-1.1	-8	12	i	1.3	3.3	30
c1ccc(-c2nc(NCC3CCCO3)c3ccccc3n2)nc1 (stereo not given)	115*	x	x	x	27	-39	x	1.8	x	8
O=C(CCn1nc(-c2ccccc2)c2ccccc2c1=O)N1CCN(c2ccccc2)CC1	5	x	x	x	4	33	x	0.2	x	15
COc1ccc(CNC(=O)[C@H](C)NC(=O)C2CCN(C(=O)[C@@H](N)CCSC)CC2)cc1	x	x	x	x	-17	7	i	3.4	1.2	-65
COc1cccc(NC(=O)c2ccccc2NS(C)(=O)=O)c1	x	-3	-8	1.7	0	4	x	-0.3	x	-6
C/C=C\C(=O)Nc1cccc(C2=NOC3(C2)C[C@H](C(N)=O)N(C(=O)Cc2ccc([N+](=O)[O-])cc2)C3)c1 (stereo not given in full)	-5	-3	11	8.6	-16	-9	i	-2.4	-3.0	x
COc1ccc(/C=N\NC(=O)c2ccc(F)cc2)cc1COc1cc(F)ccc1[N+](=O)[O-]	2	-19	-18	0.7	27	9	i	-0.8	0.4	-18
O=C(NCc1cccnc1)C(=O)Nc1ccc([N+](=O)[O-])cc1	2	13	12	2.9	-13	-10	i	5.0	-1.5	-3
CCOc1ccc(NC(=O)CN(C)C(=O)CCNC(=O)c2ccco2)cc1OCC	-1	-2	-3	-3.1	x	x	i	x	1.4	-23
O=C(Nc1ccccc1N1CCCCC1)c1cccc([N+](=O)[O-])c1	6	-2	-7	1.1	9	-8	i	-1.2	5.4	x
O=S(=O)(c1ccc(Cl)cc1)N1CCC2(CC1)OCCN2S(=O)(=O)c1cccs1	x	1	0	-2.7	29	11	i	5.2	1.6	x
CSc1ccc(/C=C(/NC(=O)c2ccccc2)C(=O)NCCCn2ccnc2)cc1	-4	-3	-7	-2.3	-9	0	i	4.6	4.2	-6

Remaining list, next part:
SMILES	Beta apoptosis	rRNA inh HTS	rRNA inh HTS OD600	rRNA inh HTS RFP	T cruzi inh	Calb FLC	FGF22 binding	RanGTP-Impb inh	AF4-AF9 inh	ALR H2O2 inh
O=C(NCCc1ccccc1)c1cc(-c2ccccc2)c(N2CCOCC2)s1	5	0	0	-0.4	35	-6	i	3.6	-0.1	5
Cc1nn(CCCC(=O)O)c(C)c1[N+](=O)[O-]	-1	13	16	1.8	-5	-27	i	x	-3.2	1
O=C(CCC(=O)Nc1ccccc1Cl)NNC(=S)Nc1ccccc1C(F)(F)F	-1	-1	4	-0.5	-10	-6	i	0.8	-14	5
Cc1cc(C)nc(Nc2ccc(Br)cc2C(=O)O)n1	-4	1	7	0.2	-3	5	i	-2.1	-18	x
CC1(C)CC(=O)C2=C(C1)NCN(Cc1ccccc1)C2	1	x	x	x	-14	-3	x	u	x	2
O=C(Oc1ccccc1Cl)c1ccc(N2CCOCC2)c([N+](=O)[O-])c1	-7	x	x	x	12	-8	x	4.6	x	x
Cc1ccc2nc3sc(C(=O)N4CCCc5ccccc54)c(N)c3cc2c1	5	x	x	x	-6	u	x	-0.5	x	-11
